# VACV Venus inh = vaccinia inhibition (Venus reporter); Vaccinia virus Venus reporter expression, fluorescence; Potency, µM (doses to about 36.5 µM), without a hit: at the top dose activity change, negative = inhibition, actives largely listed as inhibitors; 0.46% of 330,000 active; AID 720580; active means well fitted inhibition curve with a large enough effect; inconclusive means small, poorly fitted or top-dose-only effect; inactive means no such curve, though single readings can be large or run the other way; tested in A549 cells; also: nearly all actives have a fitted effect of over 30% in size; inactives centre near -10
# VACV mCherry inh = inhibitors of vaccinia virus infection (mCherry reporter signal) | Vaccinia virus mCherry reporter infection, fluorescence; about a quarter of the inactives have no number | Potency, µM (titrated, usually from 36.5 µM), for inactives: top-dose activity change, negative = inhibition, actives largely listed as inhibitors | 0.63% of 310,000 active | AID 720579; active = well fitted inhibition curve with a large enough effect; inconclusive = small, poorly fitted or top-dose-only effect; inactive = no such curve, though single readings can be large or run the other way; tested in A549 cells; also: nearly all actives have a fitted effect of over 35% in size; inactives centre near -10
# Numbers without * were called inactive; i = inactive; ? = inconclusive; nt = not tested or not shown; [ ] = another dose, or the depositor's remark. % is scaled to controls: 0 for no effect and ±100 for the full control effect; potency is read from the fitted curve at half-maximal effect.
# Start of the data: the first two records (preview)
SMILES,VACV Venus inh,VACV mCherry inh
COc1ccc2c(c1)C(=O)[C@H](O)[C@@H](c1ccc(OC)c(Br)c1)O2,-11%,?
NNC(=O)CC12CC3CC(C1)CC(n1ncnn1)(C3)C2,5%,-7%

# Main list, repeating the preview:
SMILES,VACV Venus inh,VACV mCherry inh
COc1ccc2c(c1)C(=O)[C@H](O)[C@@H](c1ccc(OC)c(Br)c1)O2,-11%,?
NNC(=O)CC12CC3CC(C1)CC(n1ncnn1)(C3)C2,5%,-7%
Cc1ccc(NS(=O)(=O)c2ccc(CCC(=O)N3CCCC3)cc2)cc1,0%,-6%
COc1ccccc1CNC(=O)/C=C/c1ccc(Br)o1,-8%,i
CN(C)CCNC(=O)CCn1nc(-c2ccc(Cl)cc2)ccc1=O,-9%,-2%
Cc1ccccc1C1NC(c2ccccc2C)C([N+](=O)[O-])C(C)(C)C1[N+](=O)[O-] (stereo not given),-10%,?
CCOC(=O)c1c(C)[nH]c(C)c1S(=O)(=O)NCCN1CCN(c2ccccc2F)CC1,?,-23%
Cc1cccc(N2CCN(C(=O)c3cnc4c(C)cccn4c3=O)CC2C)c1 (stereo not given),-3%,-8%
CCN(CC)CCNC(=O)c1ccc(NC(=O)c2ccc(S(=O)(=O)N3CCCCCC3)cc2)cc1,?,-17%
COc1ccc(-c2cn3nc(N4CCCC(C(=O)NCCCOC(C)C)C4)sc3n2)cc1 (stereo not given),-13%,-13%
C=CCOC(=O)c1[nH]c2c(c1C)C(=O)CC(c1ccco1)C2 (stereo not given),-22%,?
CN(C(=O)c1sc2nc(N3CCOCC3)c3c(c2c1N)CCCC3)c1ccccc1,-20%,-24%
CCN(CC)C(=O)CSc1nc2c(sc(=S)n2-c2ccccc2)c(=O)n1-c1ccccc1OC,-11%,-12%
CC(=O)NC(Cc1ccc(F)cc1)C(=O)NC1CCN(C(=O)Nc2cccc(C)c2)CC1 (stereo not given),1%,-11%
CCOC(=O)C1(CCc2ccccc2)CCN(C2Cc3ccccc3C2)CC1,-4%,-12%
COc1cccc(CNC(=O)c2ccc3c(c2)N(C)CCS3)c1OC,-8%,i
CC1=C(C(=O)NC2CCCC(C)C2C)C2(CCCCC2)OC1=O (stereo not given),-19%,2%
CCOC(=O)C1=C(C)NC(C)=C(C(=O)OCC)C1C(=O)OCC(=O)NC,-15%,i
CCOC(=O)C1CCCN(C(=O)c2ccc3ccccc3c2)CC1 (stereo not given),-7%,0%
Cc1nc(N2CCOCC2)c2c(C)c(C(=O)Nc3ccc(F)cc3Cl)sc2n1,-11%,i
COc1ccc(OC)c(NC(=O)c2nc(S(=O)(=O)Cc3ccccc3F)ncc2Cl)c1,?,?
COc1ccc(Cl)cc1NC(=O)c1c(-c2ccccc2)noc1C,-5%,-9%
CC(C)CC(=O)N1CCN(Cc2ccccc2[N+](=O)[O-])CC1,1%,1%
CCC1=NC(c2ccccc2)N(O)C1(C)C (stereo not given),-10%,nt

# Next section; it opens with the 3 that closed the last part.
SMILES,VACV Venus inh,VACV mCherry inh
COc1ccc(Cl)cc1NC(=O)c1c(-c2ccccc2)noc1C,-5%,-9%
CC(C)CC(=O)N1CCN(Cc2ccccc2[N+](=O)[O-])CC1,1%,1%
CCC1=NC(c2ccccc2)N(O)C1(C)C (stereo not given),-10%,nt
COc1ccccc1N1CCN(C(=O)CSc2ccc3c(C)cc(C)nc3n2)CC1,-25%,-25%
CN1CCN(C(=O)C2=C[C@H](c3ccc(C(F)(F)F)cc3)C[C@H](OCCCCO)O2)CC1,-11%,i
CC(=O)OC[C@@H]1CN(Cc2ccccc2)C[C@H](n2cnc3c(NC4CCCC4)ncnc32)O1,-19%,i
Cc1ccn2c(Nc3ccc4c(c3)OCCO4)c(-c3ccc(C)s3)nc2c1,0%,1%
CCOC(=O)c1cc(-c2nnc(SCC(=O)Nc3ccc(F)cc3)o2)c(C)nc1C,-17%,nt
CC12CC3CC(C)(C1)CC(NCc1ccncc1)(C3)C2,2%,i
CCOc1ccc(NC(=O)COc2cccc3c2CCN(Cc2cccnc2)C3=O)cc1,-20%,-29%
COc1ccc(CCNC2CCN(C)CC2)cc1OC,-13%,-19%
Cc1cccnc1NC(=S)Nc1ncccc1C,-10%,i
Clc1cc(Br)ccc1OCCN1CCOCC1,-1%,i
COC(=O)c1ccccc1NC(=O)CSc1nc2ccccc2c(=O)[nH]1,-17%,-23%
COC(=O)C1=C(c2cc3ccccc3s2)C[C@@H]2CC[C@H]1N2C(=O)NCCO,-13%,-18%
CCc1ccccc1NC1=NCC(=O)N1C1CCCCC1,-11%,-3%
Cc1ccc(CNc2ncnc3c2cnn3-c2ccc(Cl)cc2)cc1,-6%,-9%
CCOc1ccc(-c2cc3c(=O)n(Cc4nc(-c5ccc(OCC)c(OC)c5)oc4C)ccn3n2)cc1Cl,-6%,-14%
O=C(COc1ccc(Br)cc1CNCCCN1CCOCC1)Nc1ccccc1,-17%,i
CSCCC1NC(=O)N(CC(=O)Nc2ccc(N3CCCCC3)cc2)C1=O (stereo not given),-6%,-6%
Cc1cccc(C(=O)NNC(=S)NC(=O)c2ccccc2)c1,?,?
COC(=O)C(C)Sc1nnc2cc(C)c3cc(C)cc(C)c3n12 (stereo not given),-1%,-9%
COc1ccc(C(=O)CSc2nnc(-c3cccs3)n2-c2ccccc2)cc1,-16%,nt
Cc1ccc([N+](=O)[O-])cc1NC(=O)Cc1cccs1,-1%,-4%
CCOc1ccc(S(=O)(=O)N(C)CC(=O)N2CCN(CC)CC2)cc1,0%,-8%
Cc1ccc(NC(=O)CSc2nc3ccccc3c(=O)n2Cc2cccs2)cc1,0%,i
NS(=O)(=O)c1cccc(NC(=O)COC(=O)/C=C/c2nc3ccccc3s2)c1,0%,i
CCn1c(/C=C/c2c(C)[nH]c3ccccc23)nc2ccccc2c1=O,-21%,-29%
COc1ccc(N2C(=O)C(O)C2c2ccc(C)cc2)cc1 (stereo not given),0%,-11%
O=C(C[n+]1cccc(CNC(=O)c2ccc(OC(F)F)cc2)c1)Nc1cc(C(F)(F)F)ccc1Cl,-8%,-18%
Oc1ccc(C[C@H]2CNC(=S)N2CC2CCCN2C[C@H](Cc2ccc(O)cc2)N2C[C@H](Cc3ccc(O)cc3)N(CC3CCCCC3)C2=S)cc1 (stereo not given in full),10µM*,?
CCCSc1ccc([C@@H]2[C@H]3C(=O)N(CC)C(=O)[C@H]3[C@]3(C(=O)OC)CCCN23)cc1OC,0%,-14%
CCOC(=O)Cn1c(=O)c(F)cn(Cc2ccc(OC)c([N+](=O)[O-])c2)c1=O,-25%,-10%
COc1cc(OC)cc(-c2c(C#Cc3ccsc3)c3cc(-c4ccc(CN5CCOCC5)cc4)ccc3n2C)c1,-3%,i
O=c1c2sccc2nc(SCc2ccc([N+](=O)[O-])cc2)n1Cc1ccccn1,-20%,-20%
CCC1COC(c2cccn2Cc2ccc(Cl)cc2)=N1 (stereo not given),-1%,-5%
Cc1ccc(C2CCN(C(=O)Nc3ccc(F)cc3)C2)cc1 (stereo not given),-12%,-1%
Cc1ccc(C(=O)N2CCOCC2)c(F)c1F,-27%,-20%
CCOC(=O)NC(NC(=S)Nc1ccccc1[N+](=O)[O-])C(Cl)(Cl)Cl (stereo not given),-8%,i
O=C(NNC(=O)C12CC3CC(CC(C3)C1)C2)c1ccccc1[N+](=O)[O-],0%,-15%
CCOCCCNC(=O)C(=O)NCCCOCC,0%,-9%
COc1ccc(-c2ccc(CCC(=O)O)n2-c2ccccc2C(F)(F)F)cc1,-12%,-9%
CN(C(=O)c1cccc(NC(=O)Cc2ccc(NC(=O)C3CCN(S(=O)(=O)c4cccc([N+](=O)[O-])c4)CC3)cc2)c1)C1CCCC1,-11%,-10%
COc1cc(C(c2c(O)cc(C)[nH]c2=O)c2c(O)cc(C)[nH]c2=O)ccc1O,-3%,-20%
O=C(N1CCN(c2ncccn2)CC1)C12CC3CC(CC(C3)C1)C2,-17%,i
O=C(c1ccc2nc[nH]c2c1)N1CCN(S(=O)(=O)c2cccc(Cl)c2)CC1,-14%,-7%
CSCC[C@H](NC(=O)[C@@H]1CSC2c3ccccc3C(=O)N21)C(=O)N1CCC[C@H]1CO (stereo not given in full),3%,-2%
COC(=O)[C@H](CCSC)NC(=O)NC1CCN(Cc2ccccc2)CC1,-2%,nt
COc1ccc(OC)c(/C=C/C(=O)Nc2ccc3c(c2)CCC3)c1,-10%,-1%
O=C(CSc1nc2ccccc2o1)Nc1nc(-c2ccccc2)c(-c2ccccc2)s1,-2%,i
Cc1ccc(C2C(C(N)=S)=C(N)OC3=C2C(=O)CC(C)(C)C3)cc1 (stereo not given),-4%,i
O=C(/C=C/c1ccc(Br)o1)OCc1nc2ccsc2c(=O)[nH]1,-3%,-15%
COc1ccccc1-c1cnc(C(O)c2ccc(C(C)(C)C)cc2)[nH]1 (stereo not given),-14%,-9%
O=C(CCc1c[nH]c2ccccc12)NCC(=O)Nc1ccc(F)c(F)c1F,-15%,-7%
Cc1sc2ncnc(SCC(=O)c3ccc4c(c3)OCCO4)c2c1-c1ccccc1,-16%,i
Nc1ccc(S(=O)(=O)Nc2nccc(/C=C/c3ccc(Br)s3)n2)cc1,0%,8%
CCCCOCCCNC(=O)c1ccc(OC)cc1,?,nt
CC1=CC(C)(C)N(C(=O)CSc2nncn2C)c2ccccc21,-10%,i
Cn1c(=O)oc2cc(S(=O)(=O)N3CCCc4ccccc43)ccc21,-30%,?
O=C(NCC1CCNCC1)c1ccncc1,-8%,nt
COc1ccc2cnnc(SCC(=O)Nc3ccccc3)c2c1OC,-15%,-24%
CCC(C)(C)NC(=O)c1cc(S(=O)(=O)N2CCc3ccccc32)cn1C,?,-26%
NC(=O)c1ccc(NC(=O)COC(=O)/C=C/c2ccc(Br)o2)cc1,-2%,-11%
# Next section:
SMILES,VACV Venus inh,VACV mCherry inh
CN(Cc1ccccc1)S(=O)(=O)c1ccc2c(c1)OCCO2,-19%,i
COc1cc(C(=O)Nc2ccc(S(=O)(=O)Nc3cc(C)on3)cc2)cc(OC)c1OC,-2%,nt
COC(=O)c1ccc(NC2=C(Cl)C(=O)OC2OC(=O)c2ccccc2)cc1 (stereo not given),-3%,-17%
CC(C)(C)OC(=O)NCCCC[C@H](NC(=O)c1nc[nH]c1C(=O)NCc1ccccc1)C(=O)OC(C)(C)C,-11%,7%
Cc1ccc(-c2nnc(N(C)C(=O)c3ccccn3)s2)cn1,-18%,-21%
CNC(=S)NNC(=O)c1cc(C(C)(C)C)nn1Cc1ccc(F)cc1,4%,-13%
CCN(CC(=O)Nc1c(F)cccc1F)C(=O)/C=C/c1c(C)nn(-c2ccc(F)cc2)c1C,-11%,-11%
CCOC(=O)C1=C(COC(=O)CNC(=O)c2ccccc2F)NC(=O)NC1C (stereo not given),-11%,i
COc1ccc(-c2cc(CCCC(=O)NCCc3ccc(OC)cc3OC)no2)cc1,-22%,?
N#Cc1cc2cc3c(cc2nc1SCC(=O)N1CCOCC1)OCCO3,12%,-2%
Cc1cc(Br)c2nc3c(c(C(=O)O)c2c1)CCCCC3,-9%,-13%
Cc1c(N=N/C(C(=O)Nc2ccccc2)=C(/O)c2ccccc2)c(=O)n(-c2ccccc2)n1C,-15%,i
N#C/C(=C\c1ccc([N+](=O)[O-])o1)C(=O)Nc1ccc(F)cc1,57%[activator],46%[activator]
O=C(Nc1nc(-c2nc3ccccc3s2)cs1)c1ccc(S(=O)(=O)N2CCOCC2)cc1,?,?
Cc1ccnc(NS(=O)(=O)c2ccc(NS(=O)(=O)c3cc(Cl)ccc3Cl)cc2)n1,-8%,-10%
CCOC(=O)C1CCN(C(=O)c2cc3cc(F)ccc3[nH]2)CC1,-14%,i
COC(=O)[C@]1(C)CCC[C@]2(C)c3ccc(C(C)C)cc3C(=O)CC12 (stereo not given in full),1%,-7%
COc1ccc(NS(=O)(=O)c2cccc(C(=O)NN=Cc3ccc(O)c(OC)c3)c2)cc1,1%,-10%
Cc1cc(NN)nc2ccc(Cl)cc12,-18%,-24%
CCOCCn1ccc2c(OCC(=O)Nc3cc(C(F)(F)F)ccc3Cl)cccc2c1=O,-14%,-15%
COC(=O)CSc1ccccc1C(=O)OC,-4%,-12%
Cc1ccsc1/C=C/C1=Cc2c(sc(NC(=O)CSc3n[nH]c(N)n3)c2C#N)C(C)(C)C1,?,?
CN(C(=O)C12CC3CC(CC(C3)C1)C2)C1(C)CCS(=O)(=O)C1 (stereo not given),?,-20%
CC(C)(/C=N/O)/[N+]([O-])=C/C=[N+](\[O-])C(C)(C)/C=N/O,-8%,nt

# Compounds above containing a furan ring, fused or not (5):
SMILES,VACV Venus inh,VACV mCherry inh
COc1ccccc1CNC(=O)/C=C/c1ccc(Br)o1,-8%,i
C=CCOC(=O)c1[nH]c2c(c1C)C(=O)CC(c1ccco1)C2 (stereo not given),-22%,?
O=C(/C=C/c1ccc(Br)o1)OCc1nc2ccsc2c(=O)[nH]1,-3%,-15%
NC(=O)c1ccc(NC(=O)COC(=O)/C=C/c2ccc(Br)o2)cc1,-2%,-11%
N#C/C(=C\c1ccc([N+](=O)[O-])o1)C(=O)Nc1ccc(F)cc1,57%[activator],46%[activator]

# (continued)
SMILES,VACV Venus inh,VACV mCherry inh
Cc1ccc(C(=O)N2CCN(Cc3ccc4c(c3)OCO4)CC2)o1,-6%,-10%
O=c1[nH]c(=O)c2nnc(N/N=C\c3ccc(O)cc3)nc2[nH]1,1%,-13%
COc1ccc(C2/C=C\CN(Cc3ccco3)CC(=O)N2Cc2ccc(F)cc2)cc1 (stereo not given),-24%,-11%
COc1ccccc1-c1cnc(C(O)c2ccc(Cl)cc2C)[nH]1 (stereo not given),-7%,8%

# Screening results deposited in PubChem by National Center for Advancing Translational Sciences (NCATS).
